AmpC nodet inh – blocks E. coli AmpC beta-lactamase in absence of detergent | P00811 | AmpC nitrocefin hydrolysis, absorbance 480 nm, no detergent; potencies from a single point are estimates | Potency, µM (doses to about 28.7 µM), for inactives: top-dose activity change, negative = inhibition | 71,000 tested, 1.8% active; active = falling curve, for most hits resting on a single point; inconclusive = weak or doubtful change; inactive = flat or rising curve; note: % of control where 0% means no effect; about half of the hits show no inhibition at the top dose; a quarter of the inactives give rising signals
Target sequence (P00811 whole entry, looked up): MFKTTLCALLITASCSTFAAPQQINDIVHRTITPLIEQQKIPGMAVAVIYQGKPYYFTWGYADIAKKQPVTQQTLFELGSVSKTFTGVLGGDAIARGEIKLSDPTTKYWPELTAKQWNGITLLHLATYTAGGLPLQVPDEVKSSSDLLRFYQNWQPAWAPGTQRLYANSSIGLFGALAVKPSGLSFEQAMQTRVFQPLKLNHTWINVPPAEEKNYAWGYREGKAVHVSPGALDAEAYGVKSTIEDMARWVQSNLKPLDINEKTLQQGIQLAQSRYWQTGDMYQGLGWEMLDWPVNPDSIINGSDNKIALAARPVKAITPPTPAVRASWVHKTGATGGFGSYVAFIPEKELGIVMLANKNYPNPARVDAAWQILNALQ
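AmpC, 20 mM phosphate pH 7.0; 15 min cpd preinc, RT; start with nitrocefin (800 uM stock); A480 kinetic read, 20 s intervals, 4 min. No-enzyme wells = negative control.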
* marks the source's active call; other numbers are inactive results; ? = inconclusive; & = joins results of further samples; [ ] = another dose, or the depositor's remark. Potency is the fitted concentration of half-maximal effect. An excerpt (hit frequency here may not be typical).

SMILES	AmpC nodet inh
COc1cc(Br)cc(CN2CCN(C=O)CC2)c1O	6.9%
O=C(NCN1CCCCC1)c1cnccn1	5.8%
COCC(=O)N(C)c1nnc(-c2cnc(C)cn2)s1	-5.8%
Cc1cccc(CNc2cc(-c3cccnc3)ncn2)c1	22.7%
CC1CCCCC1NC(=O)C1CCN(S(=O)(=O)c2ccc3c(c2)CCC(=O)N3)CC1 (stereo not drawn)	36.1%
C=C[C@H]1CN2CC[C@@H]1C[C@H]2[C@@H](O)c1ccnc2ccccc12	-8.1%&-8.6%[12.8 µM]
Cc1ccc2nc(N3CCN(C)CC3)c(C#N)cc2c1	34.3%
CC(=O)Nc1ccc(C(=O)CSc2nnc3scc(-c4ccccc4)n23)cc1	25.2%
O=C(CN1C(=O)CCC1=O)Nc1nc(-c2ccccn2)cs1	-8.9%
CCNc1nc2nonc2nc1NCC	-0.6%
CCOC(=O)C1CCN(C(=O)c2cnn3c(C)cc(C)nc23)CC1	0.0%
COc1ccc(S(=O)(=O)NCCC(=O)NCc2cccs2)cc1	-7.5%

Two entries drawn at random from those above, as already listed:
SMILES	AmpC nodet inh
O=C(CN1C(=O)CCC1=O)Nc1nc(-c2ccccn2)cs1	-8.9%
CC(=O)Nc1ccc(C(=O)CSc2nnc3scc(-c4ccccc4)n23)cc1	25.2%

(list continues)
SMILES	AmpC nodet inh
O=C(CSc1nc2ccccc2n1CC(=O)N1CCCC1)Nc1nccs1	3.4%
C=CCn1c(SCc2ccccc2C#N)nnc1-c1ccccc1O	-9.3%
NC(=O)NC(N)=O	0.0%
COc1ccc(N2CCN(c3nc(NCCc4ccc(OC)c(OC)c4)nc(OC)n3)CC2)cc1	97.5%
O=C(NCCCC(=O)N1CCOCC1)c1cccnc1	-7.7%
CCC(CC)C(=O)NCc1ccccc1Cl	86.4%
CC(=O)Nc1nc(C)c(Cc2ccccc2)c(=O)[nH]1	-5.7%
CCn1c(=O)cc(SCC(=O)N2CCN(C(=O)c3ccco3)CC2)c2ccccc21	53.5%
CCCCCn1c(S(=O)(=O)O)nc2ccccc21	-17.9%
CCOC(=O)C(C)Sc1nnc(Cc2cc(=O)[nH]c(=O)[nH]2)n1-c1cccc(OC)c1 (stereo not drawn)	3.98µM*[single pt active]
Cc1cc(C)nc(N2CCCC(C(=O)NCCc3ccc(F)cc3)C2)n1 (stereo not drawn)	15.8%
NC(=O)CSc1nnc(-c2cc3ccccc3o2)n1Cc1ccccc1	-14.2%
CNc1ccc(C(O)(C(F)(F)F)C(F)(F)F)cc1C(O)(C(F)(F)F)C(F)(F)F	-5.5%
COCC(=O)N1CCC[C@@]2(CCN(c3ncccn3)C2)C1	20.9%
C[C@@]1(C(NC(=O)Cc2ccccc2)c2ccc(-c3ccccc3)cc2)C[C@H]1C1CCCCC1 (stereo partly drawn)	-6.1%
COc1ccc(NC(=O)CCNC(=O)Cn2cnc3ccccc3c2=O)c(OC)c1	4.3%
CC(=O)c1cnc2nc(C)nn2c1C	-9.9%
Cc1ccc(N2C(=O)NC(=O)C3(Cc4ccccc4N4CCCC43)C2=O)cc1 (stereo not drawn)	43.7%
CCOc1ccc(S(=O)(=O)NCCCN2CCOCC2)c2ccccc12	86.0%
CCOc1ccccc1Nc1nnc(SCC(=O)Nc2cc(C)on2)s1	-10.6%
COc1ccc(Cl)cc1NC(=O)CSc1ncnc2c1oc1ccccc12	12.6µM*[single pt active]
CC(=O)Nc1ccc(S(=O)(=O)N(C)S(=O)(=O)c2ccc(F)cc2)cc1	11.6%
CCNC(=O)N1CCN(CCCC(c2ccc(F)cc2)c2ccc(F)cc2)CC1	109.7%
Cc1ccccc1Cn1nc(C)c(NC(=O)c2cc(-c3cccs3)on2)c1C	49.1%
Nc1cc(N)nc(SCc2cccnc2)n1	-6.1%
CCOc1ccc(-c2[nH]ncc2Oc2ccccc2OCC)c(O)c1	-6.9%
CCOC(=O)N1CCC(NC(=O)c2cc3cc4cc(OC)ccc4nc3o2)CC1	94.0%
COc1ccccc1C(=O)Oc1ccc(N2C(=O)CCC2=O)cc1	7.6%
CN(C)CCNC(=O)NC1CCCCC1	-8.2%
CCn1c(SCC(=O)N2CCN(c3ccc(Cl)cc3)CC2)nc2ccccc2c1=O	-16.0%
COC(=O)[C@H](C)NC(=O)NCc1ccccc1F	-15.3%
O=C(CSc1ccc2nnc(-c3ccccn3)n2n1)NCC1CCCO1 (stereo not drawn)	-4.1%
CCCCCN(C(=O)NC(=O)NCCCC)S(C)(=O)=O	9.9%
C/C(=C\c1ccco1)C1C(C#N)=C(N)Oc2n[nH]c(-c3ccccc3)c21 (stereo not drawn)	-15.4%
O=C(NCCn1cccc1)c1cccc2ccccc12	-12.3%
COC(=O)c1c(NC(=O)CSc2nncs2)sc2c1CCCCC2	45.2%
O=C(COc1ccc2c(c1)OCO2)Nc1ccc2c(c1)oc1ccccc12	?
c1csc(CN2CC3(CCNCC3)C2)n1	3.6%
CCC(=NCc1cccnc1)c1c(O)n(C2CCCCC2)c(=O)[nH]c1=O	34.7%
CS(=O)(=O)N(CC(=O)N1CCCC1)c1cccc(Cl)c1	-0.3%
O=C1NCCCC1C(=O)N1CCN(C(=O)C2CCCNC2=O)CC1 (stereo not drawn)	2.7%
Cc1cc(C(=O)N2CCc3ccccc32)n(-c2ccccc2)n1	35.1%
CCOc1ccc(Oc2nc(NCC(C)C)nc(N(C)C)n2)nn1	16.2%
CCC(=O)OCc1cc2cccc(C)c2[nH]c1=O	9.9%
O=Cc1ccc2c(c1)OCO2	-0.4%
O=C1c2ccccc2S(=O)(=O)N1CC(O)Cn1c2ccccc2c2ccccc21 (stereo not drawn)	-18.1%
FC(F)(F)c1ccc2c(c1)nc1n2CCCC1	19.2%
O=C(NCc1cccs1)C1CCCN(S(=O)(=O)c2cccs2)C1 (stereo not drawn)	-18.2%
CC(=O)Nc1ccc(S(=O)(=O)NC2(C(F)(F)F)NC(=O)N(C3CCCC3)C2=O)cc1 (stereo not drawn)	-7.2%
O=C(c1ccc(COc2c(F)c(F)c(F)c(F)c2F)o1)N1CCOCC1	17.4%
N#Cc1ccc(COc2ccc(CCO)cc2-n2nc3ccccc3n2)cc1	63.4%
O=S(=O)(NC1CCCCC1NS(=O)(=O)c1ccc(F)cc1)c1ccc(F)cc1 (stereo not drawn)	-0.3%
COc1ccc(-c2nn(C)c3sc(C(=O)NCc4ccco4)cc23)cc1OC	8.9%
Cc1ccccc1OCC(=O)Nc1ccc2c(c1)OCO2	-15.2%
COc1ccc(C(c2c(O)ccc3ccccc23)N2CCOCC2)c(OC)c1 (stereo not drawn)	77.1%
Cc1ccc(-n2nnnc2SC(C)C(=O)Nc2ccc(Cl)cn2)cc1 (stereo not drawn)	-8.4%
O=C(CSc1nnc(-c2cccs2)n1-c1ccccc1)NCC1CCCO1 (stereo not drawn)	-4.1%
Cc1noc(C)c1S(=O)(=O)N1CCC(C(=O)N2CCN(c3ccc(F)cc3)CC2)CC1	106.2%
Oc1c(C(c2ccco2)N2CCN(C(c3ccccc3)c3ccccc3)CC2)sc2ncnn12 (stereo not drawn)	47.5%
CCOCCOC(C)=O	-3.1%

(list continues)
SMILES	AmpC nodet inh
O=C(CSc1ncnc2c1oc1ccccc12)N1CCCc2ccccc21	49.1%
COC(=O)c1[nH]c2c(c1C)C(=O)CC(c1ccccc1)C2 (stereo not drawn)	-20.1%
CC(=O)Nc1ccc(N=Cc2nc(-c3ccc(C)cc3)oc2O)cc1	18.8%
COc1ccc(N(CC(=O)NC2CCCCC2)S(=O)(=O)c2cccnc2)cc1	64.0%
O=C1Nc2cc(Cl)cnc2N2CCCC12 (stereo not drawn)	-17.9%
c1c[nH]cn1	-6.8%
O=C(O)[C@@H]1CCCN1Cc1ccc2c(c1)OCO2	2.9%[5.75 µM]
Cn1c(=O)c2cc(S(=O)(=O)N3CCC(c4ccccc4)CC3)ccc2n(C)c1=O	55.4%
O=C1OC(=O)c2c(Cl)c(Cl)c(Cl)c(Cl)c21	-9.2%
Cc1ccc(-c2nnc(SCC(=O)Nc3ccccc3F)o2)cc1	3.8%
O=C(CN1CCN(S(=O)(=O)c2ccc(Cl)cc2)CC1)Nc1ccc2c(c1)OCCO2	65.9%
O=C(c1cccs1)n1nc(-c2ccccc2)nc1NCc1ccco1	2.7%

By substructure: the compounds so far with a thiophene ring, fused or not
SMILES	AmpC nodet inh
COc1ccc(S(=O)(=O)NCCC(=O)NCc2cccs2)cc1	-7.5%
Cc1ccccc1Cn1nc(C)c(NC(=O)c2cc(-c3cccs3)on2)c1C	49.1%
COC(=O)c1c(NC(=O)CSc2nncs2)sc2c1CCCCC2	45.2%
O=C(NCc1cccs1)C1CCCN(S(=O)(=O)c2cccs2)C1 (stereo not drawn)	-18.2%
COc1ccc(-c2nn(C)c3sc(C(=O)NCc4ccco4)cc23)cc1OC	8.9%
O=C(CSc1nnc(-c2cccs2)n1-c1ccccc1)NCC1CCCO1 (stereo not drawn)	-4.1%
O=C(c1cccs1)n1nc(-c2ccccc2)nc1NCc1ccco1	2.7%

Carrying on.
SMILES	AmpC nodet inh
CC(=O)C1=C(O)C(=O)N(CCCCCC(=O)O)C1c1ccc(N(C)C)cc1 (stereo not drawn)	2.0%
Cc1c(C(=O)O)oc2ccc(S(=O)(=O)NCc3ccc4c(c3)OCO4)cc12	-11.9%
O=S(=O)(c1ccccc1)N1CCC2(CCN(c3cccc(-c4ccccc4)c3)CC2)CC1	10.5%
O=C(CN1C(=O)c2ccccc2C1=O)Nc1ccccc1C(=O)N1CCCC1	2.4%
Cc1nc2ccc(S(=O)(=O)NC(C(=O)NCc3cccs3)C(C)C)cc2s1 (stereo not drawn)	3.98µM*[single pt active]
CCOC(=O)N1CCN(S(=O)(=O)/C=C/c2ccccc2)CC1	39.8%
CCc1nc2ccccc2c(=O)n1CCCCn1c(CC)nc2ccccc2c1=O	5.8%
CC(=O)Nc1ccc2c(c1)nc(CCN1CCOCC1)n2C	19.8%
O=C(NCc1ccncc1)c1nnc(Cc2c(F)cccc2Cl)o1	18.0%
O=C(CCSCCc1ccncc1)NCCCN1CCOCC1	-9.8%
COc1ccc(OC)c(S(=O)(=O)N2CCC(C(=O)NCc3ccccc3OC)CC2)c1	63.3%
O=C(Cc1ccc(Br)cc1)c1ccc(O)cc1O	-0.3%
COc1ccc(C=O)cc1OC	-17.7%
CC1Cc2cc(C3(O)C(=O)c4ccccc4C3=O)ccc2N1 (stereo not drawn)	-10.8%
CCN1CCCC1CNC(=O)c1ccc(N2CCCC2=O)cc1 (stereo not drawn)	-5.8%
COc1ccc(-n2nc3cc(C)c(NC(=O)C(C)C)cc3n2)cc1	10.3%
COC(=O)c1[nH]c2ccccc2c1NC(=O)CN1CCN(C/C=C/c2ccccc2)CC1	100.9%
O=C1NCCCC1C(=O)N1CCN(C(c2ccccc2)c2ccccc2)CC1 (stereo not drawn)	87.1%
c1ccc(CCNc2nc3ccccc3n3nnnc23)cc1	-18.4%
CCCn1c(CCC(=O)O)ccc1-c1ccc(F)cc1	5.0%
COC(=O)c1ccccc1NC(=O)c1ccccc1OC	18.7%
CCN1CCN(c2ncc3c(n2)CC(c2cc(OC)c(OC)c(OC)c2)CC3=O)CC1 (stereo not drawn)	75.5%
CCOC(=O)Cn1c(C)c(C#N)c2ccccc21	-3.8%
Cc1nc2ccc(Br)cn2c(=O)c1Cl	-1.2%

Shown as labelled records: entries from further up
Cc1nc2ccc(Br)cn2c(=O)c1Cl
  AmpC nodet inh: -1.2%

COc1ccc(-n2nc3cc(C)c(NC(=O)C(C)C)cc3n2)cc1
  AmpC nodet inh: 10.3%

The listing continues:
SMILES	AmpC nodet inh
COc1cc(Cn2cnnn2)ccc1O	-19.0%
Cc1cc(C)n2nc3nc(N4CCCC4)nc(-c4ccccc4)c3c2n1	78.0%
O=C(Nc1ccccc1)NC1CCN(Cc2nnnn2C2CCCCC2)CC1	14.6%
COc1ccc(-n2c(=O)c(CCc3ccccc3)nc3cnc(N4CCN(C)CC4)nc32)cc1	139.2%
Cc1ccc(NC(=O)CN(C)S(=O)(=O)c2cccc3nsnc23)cc1C	0.3%
O=S(=O)(c1ccccc1)N1CCC2(CC1)CN(c1ccncc1)C2	17.8%
Cc1cc(N2C(=O)C(O)=C(C(=O)c3ccco3)C2c2cccnc2)no1 (stereo not drawn)	-9.7%
CCCCCn1c(=O)[nH]c2cc(C(=O)NCCCN3CCCCC3)ccc2c1=O	15.8%
Cc1ccccc1CSc1nnc(-c2cccnc2)n1N	3.7%
O=C(Nc1nc2ccc(S(=O)(=O)N3CCCC3)cc2s1)C1CCCO1 (stereo not drawn)	8.8%
CC1CN(c2cc3nccnc3cc2F)CC(C)O1 (stereo not drawn)	-9.3%
O=c1[nH]c(N2CCc3ccccc3C2)nc2c1CCCC2	-8.0%
COC(=O)c1[nH]c2ccc(C)cc2c1NC(=O)CN1CCCc2ccccc21	57.9%
COc1ccc(-c2nc(CS(=O)CC(=O)NCc3ccco3)c(C)o2)cc1 (stereo not drawn)	3.98µM*[single pt active]
COC1=CC(=O)O[C@@H](/C=C\c2ccccc2)C1	-7.7%[12.8 µM]
CN(C)/C=N/c1c(C#N)cnn1-c1ncnc2sc(-c3ccccc3)cc12	141.1%
CCN(CC)S(=O)(=O)c1cc(C(=O)Nc2ccncc2)ccc1Cl	15.5%
CCOC(=O)CN1C(=O)C(CC)Oc2ccc(Cl)cc21 (stereo not drawn)	1.7%
O=C(NCc1ccc2[nH]c3c(c2c1)CCCC3)N1CCOCC1	30.4%
CC(=O)Nc1ccc(S(=O)(=O)N2CCSC2c2ccccc2Cl)cc1 (stereo not drawn)	29.0%
CNC(=O)C1CCC(=O)N1Cc1ccc(C)cc1 (stereo not drawn)	-5.7%
CCOc1ccccc1NC(=O)N1C2CCCC1CC(NC(=O)C1CC1)C2 (stereo not drawn)	52.2%
Cc1cc2ncn(C(=O)N3CCOCC3)c2cc1C	1.6%
Cc1cc(-c2nnc(SCC(=O)NC3CCCC3)o2)no1	-0.6%
Cn1nnc2cc(C(=O)N3CCCCCC3)ccc21	-8.4%
CSc1nc2ccc(S(=O)(=O)N3CCc4ccccc43)cc2s1	24.3%

High-throughput results as filed in PubChem.
